# Screening data: PubChem, several laboratories
# HNF4A DNA FP: change in binding of human HNF4 alpha to DNA | P41235 | HNF4a-FITC DNA binding, fluorescence polarization, 1 h | activity change, % at 10 µM | 0.3% of 360,000 active; in the data active means activity change above about 30%, passing the limit was not always enough;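 further: controls were the assay level and a saturating level of protein; the project sought stronger binding though the title names inhibitors; some compounds called inactive have numbers as strong as hits; positive values seem to mean higher polarization but the record does not say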
# UCH37 inh: blocks the human deubiquitinase UCH37 | purified proteasome/UCH37, Ub-AMC cleavage fluorescence | inhibition, % (test concentration not listed) | 0.33% of 330,000 active | AID 588478;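 active means mean of two replicates above 20%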;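 further: 0% = compound-free wells with enzyme and 100% = wells lacking proteasome; stock transfer was 100 nL into about 20 µL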
# Target sequence (Q9Y5K5 whole entry, looked up): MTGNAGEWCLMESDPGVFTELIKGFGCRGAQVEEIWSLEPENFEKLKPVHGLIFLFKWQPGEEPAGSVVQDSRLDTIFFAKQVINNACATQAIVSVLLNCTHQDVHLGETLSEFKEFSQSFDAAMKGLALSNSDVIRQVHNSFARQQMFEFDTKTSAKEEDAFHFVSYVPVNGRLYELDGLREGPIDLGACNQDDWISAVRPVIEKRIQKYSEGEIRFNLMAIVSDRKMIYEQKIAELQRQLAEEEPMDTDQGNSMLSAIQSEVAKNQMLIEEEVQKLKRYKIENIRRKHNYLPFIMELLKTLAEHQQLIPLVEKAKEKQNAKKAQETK
#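 Material: human UCH37 enzyme supplied as purified proteasome complex. Measure: % inhibition of Ub-AMC cleavage fluorescence. Medium: pH 7.4 Tris-HCl (50 mM) with ovalbumin, ATP-MgCl2, DTT. Times: 30 min preincubation with enzyme, 25 min cleavage at room temperature. Detection: AMC fluorescence intensity at 355/460 nm.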
# FGF22 binding: binders of recombinant human FGF22 by thermal shift; Q9HCT0; SYPRO orange fluorescence; percent of sucrose octasulfate shift, DMSO zero; calls only at 9.99 µM; 1.5% of 340,000 active;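 active means melting point raised past a set limit in the mean and every replicate; inconclusive means no clear call; three in four hits are not shown here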
# Target sequence (Q9HCT0 whole entry, looked up): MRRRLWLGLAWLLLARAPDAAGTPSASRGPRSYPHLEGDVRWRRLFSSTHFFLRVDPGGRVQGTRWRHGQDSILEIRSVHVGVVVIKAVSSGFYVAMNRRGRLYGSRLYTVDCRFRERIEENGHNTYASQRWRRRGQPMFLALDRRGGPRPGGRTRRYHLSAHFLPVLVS
# ALR H2O2 inh: inhibitors of human sulfhydryl oxidase ALR. P55789. purified ALR, DTT oxidation, H2O2 HRP-luminol luminescence. inhibition, % (concentration not given with the values). 3.8% of 290,000 active;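 active means mean and each replicate at 75% or more; inconclusive means only one of the two met; inactive means neither met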;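 further: stock transfer was 7.5 nL into about 7.5 µL; 0% = neutral wells and 100% = wells with inactivated enzyme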
# Target sequence (P55789 whole entry, looked up): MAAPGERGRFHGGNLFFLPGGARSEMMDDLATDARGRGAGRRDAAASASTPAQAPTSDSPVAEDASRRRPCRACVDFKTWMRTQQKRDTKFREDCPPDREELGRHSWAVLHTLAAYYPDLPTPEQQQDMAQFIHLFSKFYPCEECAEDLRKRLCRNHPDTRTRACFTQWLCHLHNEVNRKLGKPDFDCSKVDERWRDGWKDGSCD
# LANA-H2A inh: blocks KSHV LANA binding to histone H2A/H2B. Q9QR71. inhibition, % (no concentration beside the values). cell-free LANA-H2A/H2B peptide, fluorescence polarization. 0.6% of 320,000 active. AID 2629; in the data active means inhibition mostly above about 10%, no sharp cut-off; inactive means mostly below about 6.7%;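 further: stock transfer was 7.5 nL into about 10 µL; 0% = median of vehicle wells and 100% = median of positive control wells; one replicate is shown; the record names a cut of 25% in any replicate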
# B2AR ag: human beta-2 adrenergic receptor agonism by FAP; 0.43% of 340,000 active; Am2.2-beta2AR cells, FAP receptor internalization, flow cytometry; reference of the scale not given here; response, % (no concentration beside the values);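 active means response above a set limit, near 3 SD of response in nonfluorescent compounds, cut at about 42% in these data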;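 further: stock transfer was 100 nL into about 11 µL; a reference agonist was the positive control; negative values mostly stem from fluorescent compounds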
# E coli growth: inhibitors of Escherichia coli growth. OD600, 23 h; active compounds read low. OD600 absorbance (test concentration not listed). 0.21% of 330,000 active. AID 1053175;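 active means OD600 absorbance below the run mean of sample wells minus 3.6 SD, in any replicate, cut at about 0.56 in these data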;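 further: stock transfer was 300 nL into about 60 µL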
# Numbers without * were called inactive; i = inactive; ? = inconclusive; . = no result given. Not all compounds are listed; rates above refer to the full screens.
SMILES,HNF4A DNA FP,UCH37 inh,FGF22 binding,ALR H2O2 inh,LANA-H2A inh,B2AR ag,E coli growth
CCN(CC)S(=O)(=O)c1cccc(-c2nnc(SCC(=O)NC3CCCCCC3)n2N)c1,4.4,3.4,.,1.5,-8.6,-9.8,0.711
CC1CCc2c(sc3ncn(CC(=O)N4CCCCC4)c(=O)c23)C1 (centres undefined),-1.0,3.1,i,-14.0,-0.9,-13.1,0.717
Cc1ccc(NC(=O)C2CC(=O)N(c3ccc4c(c3)OCCO4)C2)cc1S(=O)(=O)N(C)C (centres undefined),-1.1,1.8,i,-6.0,3.9,0.7,0.693
CCCN(CCC)C(=S)NC(=O)c1ccc(-c2ccccc2)cc1,-3.0,1.9,.,98.9*,0.9,-1.0,0.734
Cc1ccc(NC(=O)CCl)cc1S(=O)(=O)N1CCCCCC1,-0.5,4.1,i,2.8,-2.0,-5.1,0.698
CCCOc1ccc2[nH]cc(C(=O)O)c(=O)c2c1,-1.8,-1.4,.,0.7,3.9,19.6,0.733
NC(=O)c1ccc(-n2nnnc2SCC(=O)Nc2ccc(F)cc2)cc1,-4.5,3.5,i,-18.3,3.7,4.9,0.661
N#C/C(C(=O)NCc1ccccc1)=C1/SC(Cc2ccc(Cl)cc2)C(=O)N1c1ccccc1 (centres undefined),-3.5,3.0,i,-1.2,1.5,-3.6,0.742
Cc1cc(Nc2ccc(N3CCC(C)CC3)cc2)n2ncnc2n1,0.3,3.6,i,90.2*,-2.1,5.6,0.719
O=C(C[C@@H]1C/C=C/CC[C@@H](Cc2ccc(F)cc2)C(=O)O[C@H](c2ccccc2)CNC1=O)NCCO,-4.2,2.0,i,-10.1,1.3,-2.1,.
Brc1ccc(OCCOc2cccc3cccnc23)cc1,4.4,-4.2,i,1.0,1.4,-7.9,0.687
CCNc1nc(Cl)nc(NCCOc2ccc(C)cc2)n1,-1.0,2.7,.,-6.7,2.0,1.5,0.699
O=C(Nc1ccc(-n2cnnn2)cc1)c1cn2ccccc2n1,21.0,0.6,i,-1.7,4.5,-18.3,0.655
Cc1cc(C)nc(SCc2nnc(SCC(=O)N3CCCc4ccccc43)o2)n1,0.2,2.8,.,-2.0,-1.3,-9.4,0.702
CCc1ccc(N(C(C)=O)c2nc(CCl)cs2)cc1,2.6,0.9,.,-21.7,-0.3,30.8,0.703
CCCN1C2CCCC1CC(NC(=O)NC13CC4CC(CC(C4)C1)C3)C2 (centres undefined),-2.5,3.8,i,28.6,-1.4,-4.2,0.652
CN(C)C(=O)c1nc2ccc(Cl)cn2c1CN1CCCC(OCc2ccccc2)C1 (centres undefined),0.4,-0.5,i,-20.6,2.8,-6.1,0.682
CCOC(=O)CSc1nc2ccccc2c(=O)[nH]1,5.9,2.2,i,1.6,-4.3,16.7,0.703
O/N=C1/CCc2nonc2/C1=N/O,-2.4,.,.,.,0.1,-0.1,.
Cc1sc2nc[nH]c(=O)c2c1-c1ccc(Cl)cc1,1.1,2.1,i,-0.4,6.6,7.0,0.657
Cc1ccc(NC(=O)c2ccc(OC(=O)c3ccco3)cc2)cc1,-3.9,1.7,i,4.4,0.3,2.8,0.684
CC(=O)c1nc2ccccc2n1Cc1ccccc1,-0.6,-2.4,i,-11.7,-1.5,-1.5,0.681
COCc1cc(C)nc(OCC(=O)N/N=C/c2ccc(-c3cc([N+](=O)[O-])ccc3C)o2)c1C#N,1.7,.,.,-7.3,-2.3,4.0,.
CC(=O)N1CCN(c2ccc(NC(=O)c3ccc4ccccc4c3)cc2)CC1,-1.0,0.0,i,15.3,-2.2,0.2,0.653
O=C(CSc1nnc(C2CC2)n1-c1ccccc1)NCCc1ccc(F)cc1,1.5,2.3,.,6.4,-3.8,-20.4,0.789
COc1cc2[nH]c3c(N4CCN(c5ccccn5)CC4)ncnc3c2cc1OC,-1.6,-4.1,.,98.6*,0.0,18.7,0.739
COc1cc(NC(=O)c2cc(CC(C)C)on2)c(OC)cc1Cl,-0.7,1.7,i,-3.3,4.3,-15.4,0.76
CC(C)C(NC(=O)c1ccc(Cl)cc1Cl)C(=O)N1CCN(S(=O)(=O)c2ccccc2)CC1 (centres undefined),5.0,0.0,i,-5.8,-2.4,-4.8,0.723
O=C(NCc1ccc(S(=O)(=O)Nc2ccccc2Cl)s1)c1ccccc1,3.0,1.6,i,-5.4,-7.3,-4.1,0.642
Nc1nnc(-c2ccc([N+](=O)[O-])o2)s1,-1.9,11.1,.,.,.,1.9,0.0685*
Clc1ccc(N2CCN(c3ccnc(Cl)n3)CC2)cc1,0.8,4.4,i,59.0,0.0,10.0,0.667
O=C(COc1ccccc1)N(CCc1ccccc1)c1nc(-c2ccc(F)cc2)cs1,3.0,2.9,.,-1.1,-1.9,-10.5,0.721
O=C(c1cnn(-c2ccccc2)c1)c1cc(F)ccc1O,4.7,4.7,i,.,-0.3,2.6,0.649
CCOC(=O)NC(=O)C(=CNc1cccc(C)c1)C(=O)NC(=O)OCC,-6.7,4.1,i,.,0.5,-19.5,0.705
S=C(NNc1cccc(Cl)c1)NC1CCCCC1,-1.3,3.9,i,?,-1.6,-18.6,0.686
Cc1nc2ccc(Cc3ccc4nc(C)[nH]c4c3)cc2[nH]1,0.0,-1.0,.,-12.6,3.0,0.0,0.683
Cc1ccc(/C=N/NC(=O)Cn2cncn2)cc1,3.1,.,i,3.2,-5.1,3.9,.
CN(Cc1ccco1)C(=O)CN1C(=O)NC2(CCCC2)C1=O,-0.2,-0.1,i,0.6,3.2,1.4,0.687
O=C1c2ccccc2S(=O)(=O)N1CCOc1ccccc1,4.9,5.1,.,-21.7,-0.6,-1.8,0.721
CCC1CCCCN1CCCNC(=O)C1CCC(CNS(=O)(=O)c2c(C)cc(C)cc2C)CC1 (centres undefined),-0.8,3.8,i,-0.5,-1.6,27.9,0.638
O=C(NCc1ccc(Cl)cc1Cl)c1ccccn1,0.7,0.6,.,0.8,3.4,13.5,0.726
CCc1ccc(OCC(=O)NC(NC(=S)Nc2ccccc2)C(Cl)(Cl)Cl)cc1 (centres undefined),1.3,4.0,.,-3.4,3.4,4.8,0.72
COc1cccc(OCCNc2cc(N3CCCCC3)ccc2[N+](=O)[O-])c1,1.8,3.0,.,-6.1,-0.4,1.3,0.737
COC(=O)CP(=O)(c1ccccc1)c1ccccc1,0.9,5.5,.,-6.5,-3.0,2.6,0.706
Cc1nc(SCC(=O)NC2CCCCC2C)nc(C)c1C (centres undefined),0.7,4.2,i,-2.4,3.6,2.6,0.659
CCOc1ccc(C(C)NC(=O)c2cccs2)cc1OCC (centres undefined),1.2,0.9,i,2.0,0.2,-8.1,0.627
CCC(=N\NC(=O)COc1ccccc1OC)/C(CC)=N/NC(=O)COc1ccccc1OC,-1.7,.,i,-0.4,0.4,-1.2,.
O=C(Cn1cnc2c(NC(=O)OCc3ccccc3)ncnc21)NCCN1CCOCC1,-3.5,4.5,i,0.2,-0.8,-4.3,0.711
CS(=O)(=O)c1cnc(-c2ccccc2)nc1-c1ccc(Cl)c(Cl)c1,0.1,-0.6,i,-1.8,3.7,9.7,0.721
CC(=O)NC1=NN(C(C)=O)C(C)(c2cccs2)S1 (centres undefined),-3.3,1.5,.,-0.7,-8.6,-1.6,0.692
O=C(OCc1csc(Nc2ccccc2)n1)c1ccc(Cl)cc1,3.5,0.3,.,-0.7,2.3,9.5,0.647
CCc1ccccc1NC(=O)C1CCCN(c2nn3c(=O)cc(C)nc3s2)C1 (centres undefined),4.4,0.3,i,-18.1,-7.1,0.6,0.771
Cc1ccc(C)n1NC(=O)c1ccccc1O,-3.8,-4.8,.,6.7,-1.7,2.5,0.642
O=C(Nc1nnc(CC2=CCCCC2)s1)Nc1ccccc1F,.,-0.8,.,-3.1,2.6,.,0.715
CC(=O)c1ccc(N2CCN(C(=O)CCc3ccccc3)CC2)cc1,-1.9,2.6,i,16.1,3.2,-10.2,0.64
CN1CCN(S(=O)(=O)c2cccc(S(=O)(=O)c3ccc(Cl)cc3)c2)CC1,-2.8,1.1,.,-40.8,0.8,-2.7,0.659
OC(C#CCCN1CCCCC1)(c1ccccc1)C1CCCCC1 (centres undefined),4.5,1.4,i,-7.0,2.0,-0.1,0.664
N#CC1(NC(=O)COC(=O)c2cc(=O)[nH]c3ccccc23)CCCCC1,2.9,.,i,.,0.4,-3.9,.
N/C(=N\OC(=O)CCCOc1ccc(Cl)cc1Cl)c1ccncc1,3.6,1.9,i,.,-4.0,3.0,0.693
CCOc1ccc(NC(=O)CSc2ccc(-c3cccnc3)nn2)cc1,-0.2,1.9,i,-6.5,9.7,-1.0,0.647

# A portion from further up:
SMILES,HNF4A DNA FP,UCH37 inh,FGF22 binding,ALR H2O2 inh,LANA-H2A inh,B2AR ag,E coli growth
CS(=O)(=O)c1cnc(-c2ccccc2)nc1-c1ccc(Cl)c(Cl)c1,0.1,-0.6,i,-1.8,3.7,9.7,0.721
CC(=O)NC1=NN(C(C)=O)C(C)(c2cccs2)S1 (centres undefined),-3.3,1.5,.,-0.7,-8.6,-1.6,0.692

# (next part)
SMILES,HNF4A DNA FP,UCH37 inh,FGF22 binding,ALR H2O2 inh,LANA-H2A inh,B2AR ag,E coli growth
COC(=O)c1ccc(COc2cccnc2[N+](=O)[O-])cc1,-1.4,.,i,0.2,-2.9,-2.4,.
O=C(c1ccc(C(=O)N2CCOCC2)nc1)N1CCOCC1,0.5,3.9,.,6.3,-0.9,0.3,0.743
COc1cc(C(=O)Nc2cccc(-c3nncn3C)c2)cc(OC)c1OC,0.7,0.5,.,-1.1,-3.3,12.7,0.694
CCC(=O)N1c2ccc(S(=O)(=O)CCC(=O)N3CCn4c3nc3ccccc34)cc2CC1C (centres undefined),-1.7,-0.9,.,2.5,-0.7,-17.3,0.695
COc1ccc(CN2CCN(C(C)C)C(CCO)C2)cc1Cn1cccn1 (centres undefined),-0.9,1.1,i,0.9,2.8,6.6,0.647
Oc1ccccc1Oc1ncc(Br)c(N2CCOCC2)n1,-0.9,3.0,.,62.2,8.8,1.1,0.685
CS(=O)(=O)Nc1ccc(C(=O)NCCSC2CCCCC2)cc1,4.9,0.2,i,-10.3,-1.2,-4.9,0.717
CC1=NN(c2ccccc2)C(=O)C1C(=O)c1cc([N+](=O)[O-])cc([N+](=O)[O-])c1 (centres undefined),0.1,2.7,i,-19.9,0.2,9.3,0.72
O=C(CCCCCn1c(=O)[nH]c2ccsc2c1=O)N1CCN(C2CCCCC2)CC1,3.3,6.9,i,-1.2,4.7,-22.7,0.742
CC(C)c1ccccc1NC(=O)COc1ccc(C(=O)NCCc2ccccc2)cc1,1.6,3.5,.,-12.6,-0.6,12.1,0.652
CCOC(=O)C1NN=C(C(=O)c2ccccc2)C1c1ccc(Cl)cc1 (centres undefined),-3.2,.,i,.,-6.9,1.9,.
CC1(C)CC(N2CCC(=O)N(C3CC(C)(C)NC(C)(C)C3)C2)CC(C)(C)N1,-1.4,1.1,.,.,3.0,2.2,0.671
O=C(COC(=O)c1cc(Cl)nc(Cl)c1)NCc1ccc2c(c1)OCO2,-4.2,1.3,i,-0.5,-3.9,9.6,0.671
COC(=O)c1[nH]c2cc(OC)ccc2c1NC(=O)CCN1CCSCC1,-2.1,-2.4,.,-0.9,1.1,-3.1,0.71
O=C(Cn1cnc2ccccc21)N/N=C/c1cccc([N+](=O)[O-])c1,0.5,.,i,-0.3,1.3,0.4,.
CN1CCN(c2ccc(NC(=O)CN3CCOCC3)cc2F)CC1,-3.4,5.3,i,.,.,-4.4,0.713
O=C1c2ccccc2C2(c3ccccc3)N1CCN2C(=O)C(Cl)(Cl)Cl (centres undefined),-1.6,3.5,i,-16.8,-4.1,9.8,0.665
Cc1cc(C)n2nc(SCc3nc4ccccc4[nH]3)nc2n1,-47.9,2.6,i,.,4.9,-18.7,0.754
Cc1cc(C)cc(C(=O)NC(=S)Nc2ccc(Cc3ccncc3)cc2)c1,0.9,0.3,i,.,-5.8,-7.4,0.705
COc1ccc(CNC(=O)c2csc(Cc3ccc(OC)cc3)n2)cc1,-0.8,3.6,.,-4.4,0.0,-5.1,0.739
O=[N+]([O-])c1cc(O)c2ncccc2c1,.,6.2,i,-57.5,5.2,.,0.134*
